Env fusion inh – blocks HIV Env-driven cell-cell fusion | HeLa-JRFL Env/CEM21 cell fusion, luciferase | inhibition, % at 12.3 µM | 360,000 compounds, 1.1% hits;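 active = mean replicate inhibition score of at least 50 and every replicate individually at or above 50; inconclusive = only one of the two criteria met; inactive = mean below 50 and not all replicates reaching 50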;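 also: 0% = plate neutral controls and 100% = maraviroc near 300 nM; one replicate is shown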
PABP FP inh – blocks human PABP binding to poly(A) RNA. P11940. fluorescence polarization. inhibition, % at 35 µM. 290,000 compounds, 1% hits;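 active = 50% or more with normal probe brightness, or confirmed in later tests; inconclusive = above 50% with abnormal brightness, or retests that disagree; inactive = below 50% or failed in later tests; about a fifth of its hits are not listed in these tables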;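 also: calls also rest on retests at 20 µM and on dose response follow-up; controls were probe without protein and protein plus probe with vehicle; some compounds called inactive have numbers as strong as hits; many hits fall short of the cut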
eIF4H FP inh – inhibitors of RNA binding by human eIF4H. inhibition, % at 35 µM. 290,000 compounds, 0.94% hits. eIF4H fluorescence polarization binding assay;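 active = 50% or more with normal probe brightness, or confirmed in later tests; inconclusive = above 50% with abnormal brightness, or retests that disagree; inactive = below 50% or failed in later tests; about a fifth of its hits are not listed in these tables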;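 also: calls also rest on retests at 20 µM and on dose response follow-up; 0% = protein and probe with vehicle and 100% = probe without protein; strong numbers were not always called active; many hits fall short of the cut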
CSC inhib – blocks cancer stem cells | 300,000 compounds, 1.1% hits | cancer stem cell-like cells viability, luminescence | inhibition, % at 7.5 µM | AID 2717;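 active = mean at 75% or more and at least half the replicates too; inconclusive = mean and replicates disagree; tested in HMLE shEcad cells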;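 also: 0% = median of negative and 100% = median of positive control wells; the first replicate is given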
MT1-MMP act inh – MT1-MMP (human) activation inhibition; P50281; HT1080 RFP-PRO-GFP cells, GFP/RFP ratio fluorescence, overnight; percent of plate control window, DMSO zero; GFP/RFP ratio change, % at 20 µM; 360,000 compounds, 0.061% hits; AID 651647;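 active = GFP/RFP ratio change of at least 30% with cell ATP level not reduced by more than half and red fluorescence within 50% of control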; also: strong numbers were not always called active
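Assay system – RFP-PRO-GFP reporter HT1080 cells · Compound dosing – single dose of 20 µM compound, 1% DMSO final · Incubation – overnight compound exposure at 37 °C · Measure – GFP/RFP fluorescence ratio · Benchmarks – DMSO wells and RFP-L50D-GFP cells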
Yeast UUG start – yeast start codon fidelity modulation; AID 602363; S. cerevisiae UUG-firefly luciferase reporter, luminescence/redox ratio; activity score, % at 18.7 µM; 350,000 compounds, 0.13% hits;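 active = replicate mean at a twofold rise or more, about +100% in these data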;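 also: firefly luciferase made from a UUG start codon reports start codon fidelity; reporter light over untreated wells divided by growth signal over untreated wells; some hits fall short of that in this replicate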
Rce1 inhib – inhibitors of yeast Ras-converting enzyme. calls only. Q03530. yeast membranes, quenched prenylated peptide cleavage fluorescence. AID 2563. 290,000 compounds, 0.27% hits;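 active = fall in fluorescence gain of 50% or more versus controls, with final raw signal at or below 3038400; inconclusive = same 50% fall but final raw signal above 3038400; inactive = fall in fluorescence gain under 50%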;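 also: plate controls were neutral control wells for no effect and wells lacking membranes for full effect; tested at 10 µM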
Target sequence (Q03530 whole entry, looked up): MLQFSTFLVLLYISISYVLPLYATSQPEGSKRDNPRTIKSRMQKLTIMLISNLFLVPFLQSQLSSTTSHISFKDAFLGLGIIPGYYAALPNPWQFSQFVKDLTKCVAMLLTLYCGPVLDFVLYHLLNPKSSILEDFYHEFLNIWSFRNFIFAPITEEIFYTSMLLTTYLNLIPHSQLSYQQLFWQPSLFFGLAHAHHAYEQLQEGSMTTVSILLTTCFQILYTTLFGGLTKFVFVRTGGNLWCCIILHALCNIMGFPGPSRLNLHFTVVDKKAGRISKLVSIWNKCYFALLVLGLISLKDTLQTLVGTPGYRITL
eIF4H FP inh retest – recorded beside eIF4H FP inh, whose call it bears; inhibition, %; compound at 20 µM; confirmation average;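 mean of two retest wells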
PABP FP inh retest – further read-out of PABP FP inh, marked with its call; inhibition, %; compound at 20 µM; confirmation repeats;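 mean of two retest wells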
MT1-MMP act inh RFP – also measured in MT1-MMP act inh; calls as there; RFP signal change, %; measured here: RFP expression control read;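 0 = vehicle wells; hits needed this value within 50% of zero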
* marks the source's active call; other numbers are inactive results; i = inactive; ? = inconclusive; / = not tested or not shown.

SMILES | Env fusion inh | PABP FP inh | eIF4H FP inh | CSC inhib | MT1-MMP act inh | MT1-MMP act inh RFP | Yeast UUG start | Rce1 inhib | others
Cc1cc(C)n(CC(=O)N2CCCC(C(=O)c3cccc(OC(C)C)c3)C2)n1 (centres undefined) | 6 | -1 | -6 | 7 | 0 | -5 | -5 | i
CCCc1c(-c2ccc(O)cc2)nn(-c2ccc(O)cc2)c1-c1ccc(O)cc1 | / | -6 | 6 | 84* | -12 | -12 | -16 | i
COc1ccc(N2CC(C(=O)N[C@@H](C)C(=O)NC3CCCCC3)CC2=O)cc1 (some centres undefined) | -1 | -6 | 2 | -4 | -1 | 2 | -11 | i
COc1ccc(CNC(C)C2COc3ccccc3O2)c(OC)c1 (centres undefined) | / | 8 | -1 | 3 | -4 | -3 | -5 | i
O=C(NC(=S)Nc1cccc2cc(O)ccc12)c1ccco1 | -21 | 23 | 1 | 7 | -1 | 0 | -6 | i
COc1ccc(-c2csc(NC(=O)CSc3nc(C)cs3)n2)cc1 | -107 | / | / | -8 | 1 | -2 | -16 | i
Clc1ccc(COc2ccccn2)c(Cl)c1 | 25 | -1 | 4 | -6 | 1 | 1 | -5 | i
CCN(CCCNC(=O)CCCOc1cc(=O)n(C)c2ccccc12)Cc1ccccc1 | -24 | -5 | -6 | 9 | 8 | 7 | / | i
CN1CCN(C(=O)c2ccc(CSc3ccc(Cl)cc3)cc2)CC1 | / | -4 | -2 | 69 | 1 | -13 | / | i
O=C(c1ccc2nc(Cc3cccc(Cl)c3)oc2c1)N1CCC(CO)CC1 | 27 | 3 | 3 | 15 | 6 | 1 | -11 | i
CC(=O)Nc1cc(-c2ccccc2F)cn2c(-c3cccc(C(F)(F)F)c3)cnc12 | -26 | / | / | / | 6 | 1 | -13 | /
O=C(COc1ncnc2ccc(Br)cc12)N1CCOCC1 | / | 66* | 1.0* | -1 | 6 | 8 | -23 | i | eIF4H FP inh retest=82*;PABP FP inh retest=54*
CN(C)CC1CCCCC1OC(=O)c1ccc(S(=O)(=O)N(C)c2ccccc2)cc1 (centres undefined) | 0 | 8 | -5 | 7 | -2 | 3 | 3 | i
Cc1ccc(-n2c(N)c(C#N)c(-c3ccccc3)c(C#N)c2=O)cc1 | / | 21 | -3 | -9 | 1 | -2 | -2 | i
CC(C)OCCCNC(=O)C(C)Oc1ccccc1 (centres undefined) | / | -8 | -7 | 1 | 1 | -2 | -14 | i
COc1ccccc1NC(=O)CSc1nc2ccccc2n1C(C)=O | -9 | 0 | -2 | 2 | -3 | -9 | -32 | i
Cc1ccc(S(=O)(=O)N(C)C)cc1NC(=O)COC(=O)CN1C(=O)c2ccccc2C1=O | -2 | / | / | -16 | -3 | 7 | -6 | /
Cc1cc(O)c(C(C)C)cc1NC(=O)c1cccc(Cl)c1 | 8 | -3 | -7 | 3 | 4 | 3 | -1 | i
CC(C)n1c(=O)c2ccccc2n1C(=O)c1ccccc1 | 1 | / | / | / | 6 | 1 | -8 | /
CC(=O)N1CSCC1C(=O)N1CCN(c2ccc(N3CCOCC3)nn2)CC1 (centres undefined) | -7 | 6 | -3 | -8 | -2 | 4 | -11 | i
CC(C)CCNC(=O)NC(=O)COC(=O)/C=C/c1cc(Br)ccc1F | / | -6 | -4 | -12 | 1 | 0 | / | i
CCCCC(CC)C(=O)Nc1cccc(SC)c1 (centres undefined) | 5 | -5 | 1 | -4 | 2 | 0 | / | i
CCOC(=O)C1(C)NC(c2ccco2)C2C(=O)N(c3ccc(C)cc3)C(=O)C21 (centres undefined) | / | 9 | -6 | -4 | -2 | -3 | -24 | i
CSCCC(NC(N)=O)C(=O)NCc1ccccc1Cl (centres undefined) | -18 | -9 | 6 | -1 | 2 | 2 | -6 | i
COc1ccc(C(=O)N(C)[C@H]2C[C@H]3c4[nH]c5ccccc5c4CCN3C(=O)[C@H]2CO)cc1 | -53 | / | / | / | 4 | 1 | 4 | /
N#Cc1cnc2nc1NCCCCCCC2 | -10 | / | / | / | -2 | -8 | -22 | /
O=C(NCCSc1c[nH]c2ccccc12)c1ccco1 | -20 | -12 | -11 | -1 | 1 | 0 | -23 | i
O=C(O)c1ccc2nc(CO)[nH]c2c1 | -70 | 16 | -6 | -6 | 8 | -1 | / | i
CCN1CCCC1CNC(=O)Cn1cc2c(n1)CCC(C)C2 (centres undefined) | 6 | -8 | -2 | -31 | -8 | 4 | -18 | i
C=CCN1C(=O)/C(=C\c2ccc(OC(=O)c3ccco3)c(OC)c2)SC1=S | -24 | -7 | -10 | 6 | -10 | 70 | -6 | i
O=c1c2ccccc2cnn1Cc1nnc(-c2cccs2)o1 | 1 | 10 | 6 | -3 | 1 | 7 | -15 | i
Cc1nn(C)c(C)c1NC(=O)COc1ccccc1C#N | / | / | / | 4 | 6 | -6 | 48 | /
O=C(c1ccccc1)c1ccc(Oc2ccc([N+](=O)[O-])cc2[N+](=O)[O-])cc1 | -23 | / | / | / | -3 | -2 | -17 | /
CC1=CC(C)(C)[N+](C)(C)c2ccc(C)cc21 | 2 | 59* | 1 | 6 | 1 | 1 | / | i
COC(=O)Cc1cc(=O)n2[nH]c(C(F)(F)F)nc2n1 | / | 14 | -3 | -14 | -2 | 3 | -12 | i
Cc1ccc(-c2nnc(CCC(=O)NCc3csc(C)n3)o2)s1 | 2 | 0 | 1 | -6 | 2 | -2 | -11 | i
Cc1ccc(NC(=O)C2(C)CCN2CCc2ccccc2)cc1O (centres undefined) | 16 | / | / | / | 2 | -7 | -1 | /
CC(=O)c1cccc(NC(=O)/C(=C\c2cccnc2)NC(=O)c2ccco2)c1 | -12 | -6 | 6 | 18 | 0 | 2 | / | i
O=C(c1cc2n(n1)C(C(F)(F)F)CC(c1ccco1)N2)N1CCc2ccccc2C1 (centres undefined) | / | 12 | -8 | 0 | -5 | -4 | 4 | i
CCCC(=O)Nc1ncnc2c1ncn2[C@@H]1O[C@@H]2OP(=O)(O)OC[C@H]2[C@H]1OC(=O)CCC | -16 | / | / | -5 | 0 | 2 | -12 | /
CCOc1cc(-c2nc(C)c(C(C)=O)n2O)ccc1OCC(=O)Nc1ccc(F)cc1 | 7 | 9 | 7 | 8 | 6 | 1 | / | i
N/C(=N\OC(=O)c1ccco1)c1cccc(Br)c1 | -159 | 0 | 0 | / | 1 | 2 | -14 | i
COCCN(C(=O)COc1ccccc1C#N)c1c(N)n(Cc2ccccc2)c(=O)[nH]c1=O | 3 | / | / | -2 | -6 | -1 | / | /
Cc1cccc(C)c1NS(=O)(=O)c1cc2c3c(c1)CCN3C(=O)CC2 | 5 | / | / | -2 | 4 | 0 | -25 | i
COc1cc(/C=N/Nc2ccc(Cl)cc2)ccc1OC(=O)c1cccs1 | -10 | -3 | -12 | 19 | 5 | 2 | -15 | /
Cn1c(N)c(C(=O)COC(=O)/C=C/c2cccc(Cl)c2)c(=O)n(C)c1=O | 2 | / | / | 0 | 11 | 6 | / | /
Cn1c(=O)n(CCOc2ccccc2Cl)c2ccccc21 | / | -12 | 5 | 11 | 6 | 2 | 2 | i
Cc1ccc2c(c1)nnn2C1CCN(S(=O)(=O)c2cccc(S(=O)(=O)N(C)C)c2)CC1 | 8 | -4 | 4 | 0 | -1 | -14 | -27 | i
COc1ccc(CNC(=O)Cn2ncn3c(cc4ccccc43)c2=O)cc1 | 12 | -34 | -11 | -6 | -1 | 4 | -18 | i
CCCCCCC(=O)N(O)C1CC(=O)N(c2ccc(Cl)cc2)C1=O (centres undefined) | 7 | 4 | -12 | -1 | 10 | 4 | -7 | i

A draw from above in order of SMILES length, rising.
SMILES | Env fusion inh | PABP FP inh | eIF4H FP inh | CSC inhib | MT1-MMP act inh | MT1-MMP act inh RFP | Yeast UUG start | Rce1 inhib | others
Cn1c(=O)n(CCOc2ccccc2Cl)c2ccccc21 | / | -12 | 5 | 11 | 6 | 2 | 2 | i
COc1ccc(CNC(=O)Cn2ncn3c(cc4ccccc43)c2=O)cc1 | 12 | -34 | -11 | -6 | -1 | 4 | -18 | i
COCCN(C(=O)COc1ccccc1C#N)c1c(N)n(Cc2ccccc2)c(=O)[nH]c1=O | 3 | / | / | -2 | -6 | -1 | / | /

The list continues:
SMILES | Env fusion inh | PABP FP inh | eIF4H FP inh | CSC inhib | MT1-MMP act inh | MT1-MMP act inh RFP | Yeast UUG start | Rce1 inhib | others
CCC(=O)OCC(=O)Nc1cc(S(=O)(=O)N(C)C)ccc1Cl | -16 | ? | -6 | -8 | 2 | 4 | -20 | i
CCOC(=O)Nc1sc(C(=O)N(CC)CC)c(C)c1C(=O)OCC | -84 | 11 | 3 | -12 | -5 | 0 | -7 | i
CCNC(=S)N1CCCC(C(N)=O)C1 (centres undefined) | -5 | -7 | -4 | -16 | 2 | 2 | / | i
Cc1ccc(-c2cc(C(=O)Nc3ccccc3C)c3ccccc3n2)o1 | -21 | -3 | 17 | 0 | -6 | 7 | / | i
COc1ccc(OCCOC(=O)c2nc3nccc(C)n3n2)cc1 | -6 | 2 | -6 | 0 | 4 | 8 | / | i
CCCN1CCC(NC(=O)CC2C(=O)NCCN2Cc2ccccc2C)CC1 (centres undefined) | 11 | 2 | -5 | -3 | -2 | -2 | 2 | i
COc1ccc(C2Nc3ccccc3C(=O)N2c2ccc(C)cc2)cc1Cn1nc(C)c([N+](=O)[O-])c1C (centres undefined) | / | -3 | -9 | -5 | 0 | -1 | -7 | i
Cc1ccc(OCC(=O)Nc2oc(-c3ccccc3)c(-c3ccccc3)c2C#N)cc1 | / | / | / | -7 | -2 | 6 | -3 | i
O=C(CSc1ccccc1F)NCCN1C(=O)CSC1=O | / | / | / | -10 | -1 | 0 | -17 | /
O=C(Cc1ccccc1)N1CCN(c2ncccn2)CC1 | -6 | -10 | 6 | -10 | 0 | 1 | / | i
CCOC(=O)/C(=N/Nc1ccc(OC)cc1)Sc1nnc(CCc2ccccc2)n1-c1ccccc1 | -26 | -1 | 6 | -23 | 0 | 0 | / | /
CO/N=C(/CNC(=O)c1ccccc1Cl)c1ccc(Cl)cc1 | / | -4 | -3 | -2 | 2 | 1 | / | i
COCCn1c(C)cc(/C=C(\C#N)C(=O)OCC(=O)N(C)c2c(N)n(Cc3ccccc3)c(=O)[nH]c2=O)c1C | 3 | / | / | -1 | 0 | 2 | -20 | i
CCCCc1cc(=O)oc2cc(OCC(=O)NCCN3CCOCC3)ccc12 | 5 | -5 | -9 | -25 | 5 | 4 | -14 | i
CNS(=O)(=O)c1ccc(NC(=O)C2CC(=O)N(c3ccc(Cl)cc3)C2)cc1 (centres undefined) | 2 | -2 | 7 | -10 | 4 | 1 | -1 | i
COC(=O)c1ccc2c(=O)[nH]c(CCl)nc2c1 | 3 | -1 | -10 | -3 | 4 | 4 | -16 | i
O=C(CN1CCOCC1)Nc1ccc(Cl)c(Cl)c1 | / | 6 | 25 | -14 | 3 | 1 | -18 | /
COc1ccc(-c2ccc3c(N)c(C(=O)NC(C)C)sc3n2)cc1OC | -4 | 0 | -13 | -6 | 4 | 6 | -8 | i
COc1ccc(S(=O)(=O)NCc2ccc(C(=O)NCc3cccnc3)cc2)cc1 | 12 | -2 | 3 | 38 | / | / | / | i
Cc1ccc(S(=O)(=O)N2CCOCC2)cc1NC(=O)COC(=O)c1ccc2c(c1)OCCO2 | 1 | 6 | -11 | 7 | 2 | 3 | -8 | i
CC(C)C(=O)Nc1cccc(-c2nc3ccccc3c(=O)o2)c1 | / | 1 | 3 | 6 | 5 | 4 | -2 | i

Source: PubChem BioAssay (several laboratories)

These rows are one share of the data (hit frequency here may not be typical).
